H5N1 antiviral: antiviral screen in MDCK cells, H5N1 avian flu | AID 740 | inhibition, % at 50 µM | 0.07% of 96,000 active | cytopathic effect, luminescence, 72 h; hits give high values; no value below 0 was filed and about half of the inactive calls have no number; reference of the scale not given here; in the data active = inhibition above about 25%
The depositor's hits bear a star; i = inactive. The list is partial; the hit share may differ from the screen's.

SMILES	H5N1 antiviral
O=C(Nc1ccc2c(c1)OCO2)C1CCN(Cc2cnn(-c3ccccc3)c2-n2cccc2)CC1	i
CCN(Cc1ccccc1)S(=O)(=O)c1ccc(C(=O)Nc2nnc(C3CC3)o2)cc1	0.6
O=C(Cn1nc(-c2ccc(Cl)cc2)ccc1=O)NCC1CCCO1 (configuration not stated)	1.4
Cc1cccc(N(CC(=O)NC2CCCCC2)C(=O)c2ccc(C)s2)c1	i
Cc1ccc(-n2c(SCC(=O)N3CCCC3)nc3c(c2=O)SCC3)cc1	1.0
CN1/C(=C\C(=O)COC(=O)CN2C(=O)C3CC=CCC3C2=O)C(C)(C)c2ccccc21 (configuration not stated)	1.0
CCc1ccc(NC(=O)CNS(=O)(=O)c2c(C)noc2C)cc1	1.4
CC1=CCC2C(=O)N(C(C)c3ccccc3)C(=O)C2C1 (configuration not stated)	0.9
CCOc1ccc(NC(=O)c2ccccc2NS(C)(=O)=O)cc1	0.7
O=C(Cc1ccccc1)N1CCCC(c2nc(-c3ccc(S(=O)(=O)N4CCCC4)cc3)no2)C1 (configuration not stated)	0.3
CC(C)CCNC(=O)C1CC(c2cccc([N+](=O)[O-])c2)=NO1 (configuration not stated)	i
CCN(CC(=O)NC1CCS(=O)(=O)C1)c1ccc(S(C)(=O)=O)cc1[N+](=O)[O-] (configuration not stated)	i
O=C(CCCSc1nc2ccccc2[nH]1)N1CCN(c2ccc([N+](=O)[O-])cc2)CC1	i
CCC(C)(C)NC(=O)Cc1ccc(C)cc1	0.1
CC(C)(C#N)N([O-])C=C[N+](=O)C(C)(C)C#N	i
Cc1ccc(C(=O)CSc2nc(C)cc(SCc3nnc(-c4ccccc4)o3)n2)cc1	1.0
Nc1cccc(S(=O)(=O)NC2=NCCC2)c1	i
Cc1ccc(NC(=S)NC(NC(=O)C(C)(C)C)C(Cl)(Cl)Cl)c(C)c1 (configuration not stated)	i
COC(=O)c1c(NC(=O)CN2CCC(C)CC2)c2c(C)cccc2n1C	1.3
CC1CN(C2CC(C)(C)NC(C)(C)C2)CCC1=O (configuration not stated)	2.4
Cc1ccc(S(=O)(=O)N2CCN(c3nc(C)nc4sc(C)c(C)c34)CC2)cc1	i
COc1cccc(-c2nc(CS(=O)(=O)CC(=O)NC3CCCc4ccccc43)c(C)o2)c1 (configuration not stated)	0.8
Cc1ccc(SCC(=O)Nc2ccc(-c3nnc(-c4ccco4)o3)cc2)cc1	i
Cc1csc(NC(=O)CSc2nsc(SCC(=O)Nc3nc(C)cs3)c2C#N)n1	0.7
Cc1ccc(C2C(C(=O)c3ccco3)=C(O)C(=O)N2c2nnc(C)s2)cc1 (configuration not stated)	i
CC(=O)N1CCc2cc(S(=O)(=O)NC(CC(C)C)C(=O)N3CCc4ccccc4C3)ccc21 (configuration not stated)	0.2
CN(C)/N=C/c1c(O)ccc2ccccc12	0.5
COc1ccc(N2C(=O)CCC(C(=O)O)C2c2ccc(F)cc2)cc1 (configuration not stated)	i
COc1ccccc1OCCn1c(=O)sc2ccccc21	0.6
CCOc1cc(-c2nc(-c3ccc(OC)cc3)no2)cc(OCC)c1OCC	0.3
O=C(C1CCC(CNc2c(N3CCOCC3)c(=O)c2=O)CC1)N1CCN(c2ccccc2)CC1 (configuration not stated)	1.1
COc1ccc(CCNC(=O)CSc2nnc(Cn3c(=O)sc4ccccc43)n2C)cc1OC	0.5
C/C(=C\C(=O)C(F)(F)F)Nc1ccc(C(F)(F)F)cc1	i
Cc1ccc2cc(C3C(C#N)=C(N)Oc4c3ccc3cccnc43)c(=O)[nH]c2c1 (configuration not stated)	14
CSCCC(Nc1nc2ccccc2s1)C(=O)O (configuration not stated)	0.4
Cc1ccc(O)c(C(=O)c2cnc3c(c2)CN(CCC(C)C)C(=O)N3)c1	1.0
Cc1cc(C)nc(NS(=O)(=O)c2ccc(-n3cccc3)cc2)n1	3.4
Cc1ccccc1Nc1c(N)c(=O)oc2ccccc12	i
Cc1cccc2c1N(CCCOc1ccccc1)C(=O)C2=O	0.4
COc1cccc2sc(N3CCN(c4nc5ccccc5s4)CC3)nc12	0.3
c1ccc(-c2csc(Nc3nc(N4CCOCC4)nc(N4CCOCC4)n3)n2)cc1	i
CCCCOC(=O)C1[C@H]2C(=O)N(CCc3ccccc3)C[C@]23C=C[C@H]1O3 (some centres not stated)	i
O=C(O)C1C2C=CC(O2)C1C(=O)NCCC1=CCCCC1 (configuration not stated)	0.8
CCSc1nc2ccccc2[nH]1	i
C=CCn1c(SCC(=O)Nc2ncc(Cc3ccc(Br)cc3)s2)nnc1-c1ccncc1	i
CCOC(=O)c1ccc(CSc2n[nH]c(C)n2)o1	0.5
O=C(Nc1ccc(-c2nc3ccccc3o2)cc1)C1CCCO1 (configuration not stated)	0.3
COc1ccc2c(Cl)c(-c3nnc(SCC(=O)c4ccccc4)n3C)sc2c1	0.7
CCCS(=O)(=O)N1CCN(c2ccccn2)CC1	0.5
O=C(c1ccco1)N1CCN(C(=O)c2cc(-c3ccccn3)nc3ccccc23)CC1	1.5
Going on with the list.
SMILES	H5N1 antiviral
O=C(Nc1ccc(-c2nc3ccc(NC(=O)c4cccs4)cc3[nH]2)cc1)c1cccs1	1.2
O=C(CCC1COc2ccccc2O1)Nc1ccc(Cl)cn1 (configuration not stated)	3.6
CCn1c(=O)c(C(=O)NCc2cccnc2)c(O)c2ccccc21	i
CCC(=O)Nc1ccc(NC(=O)c2c(C)nc3ccccn23)cc1	i
Cc1cc(=O)[nH]c(SCc2nc3ccccc3n2Cc2ccccc2)n1	1.3
COc1ccc(/C=N/c2c(-c3ccco3)nc3ccccn23)cc1OC	i
CC(C)=CC1C=C(C)C(C)C2C(=O)NNC(=O)C12 (configuration not stated)	0.4
CCC(=O)Nc1cc(SCCO)cc([N+](=O)[O-])c1	i
N=c1c2c(n(Cc3ccc(F)cc3)c3c1CCC3)CCC2	i
C/C(=N\NC(=O)c1ccc(Cl)cc1)c1cccc(NC(=O)C(C)C)c1	1.1
c1ccc2nc(N3CCOCC3)cnc2c1	0.7
CC(C)N1C(=O)CCC1C(=O)NC1CCCC1 (configuration not stated)	i
COC(=O)C1=C(C)N(CCc2ccc(OC)c(OC)c2)C(=O)C1	0.9
O=C(/C=C\Nc1cccc(F)c1)c1ccc2c(c1)OCO2	i
O=c1c2c(-c3cccs3)csc2ncn1/N=C/c1ccc(OC(F)F)cc1	i
CCOC(=O)c1nnc(-c2ccccc2)nc1NC	1.6
CC(C)C1N(C(=O)CN2CCCC2)CCN1S(=O)(=O)c1ccccc1 (configuration not stated)	0.2
CCOC(=O)c1oc2cccc(OCC(O)CNC(C)C)c2c1C (configuration not stated)	i
CC1CCN(S(=O)(=O)c2ccc3c(c2)oc(=O)n3CC(=O)N2CCc3ccccc3C2)CC1	i
COc1ccccc1N1C(=O)C2C3C=CC(C3)C2(C)C1=O (configuration not stated)	i
Cc1ccc2occ(C(=O)c3ccco3)c(=O)c2c1	2.7
Cc1ccc(N2C(=O)CSC2c2cccnc2)cc1F (configuration not stated)	0.6
CCc1cc(C=NC2CCCCC2)c(O)s1	0.8
CN1C(=O)CC(Sc2ncccc2C(=O)O)C1=O (configuration not stated)	i
CCOC(=O)c1nnn(-c2nonc2N)c1COc1ccccc1	0.9
COc1cc(CC(=O)NCc2ccc3c(c2)OCO3)cc(OC)c1OC	0.2
COc1ccc(CCC(=O)Nc2nc3c(s2)CN(C)CC3)cc1OC	0.6
Cc1cccc(N(C(=O)c2csnn2)C(C(=O)NC(C)(C)C)c2ccncc2)c1 (configuration not stated)	1.1
COc1ccc(CCNC(=O)CCS(=O)(=O)c2ccc3c(c2)CCN3C(C)=O)cc1OC	0.5
O=C(NCCN1CCOCC1)c1csc2c1CCCCC2	i
O=C(Nc1nc(-c2ccc(S(=O)(=O)N3CCOCC3)cc2)cs1)c1ccccc1	2.7
O=C(Cc1ccc(Cl)cc1)N1CCN(C(=O)c2ccco2)CC1	0.2
COC(=O)C1C(O)=C(C(C)=N)C(=O)CC1(C)C (configuration not stated)	i
CCCCN(C)Cc1c(C)[nH]c2c(Cl)cccc2c1=O	2.4
Cc1nc(C)c(NC(=O)N2CCc3ccccc32)cc1NC(=O)N1CCc2ccccc21	i
CNc1oc(Cc2cccc3ccccc23)nc1C#N	2.5
O=C(CSc1nnnn1-c1cccc2c1CCCC2)NC1CCCC1	i
CCC(C)n1c(SC(C)C#N)nc2ccccc2c1=O (configuration not stated)	2.4
O=C(O)CCC(C(=O)O)n1c(O)c(C2=c3ccccc3=NC2=O)sc1=S (configuration not stated)	0.2
CCCOc1ccccc1C(=O)NC(CO)C(=O)O (configuration not stated)	i
O=C(NC1CCCc2ccccc21)C1CCN(c2nnc(-n3cccc3)s2)CC1 (configuration not stated)	i
CCCn1c(-c2ccccc2)nc2c(=O)n(C)c(=O)[nH]c21	i
Cc1[nH]nc2c1C1(CCN(Cc3ccccc3)CC1)C(C#N)=C(N)O2	1.4
Cc1occc1-c1nnc(SCC(=O)Nc2nc3ccccc3s2)o1	0.7
COC(=O)C(C)Sc1nc2c([nH]c3ccccc32)c(=O)n1C (configuration not stated)	2.3
Cn1c(C(O)c2ccccc2)nc(Cl)c1Cl (configuration not stated)	i
O=C(COc1ccccc1)Nc1ccccc1N1CCN(c2ccc(F)cc2)CC1	i
Cc1ccccc1NC(=S)N(C)C1(c2ccccc2Cl)CCCCC1=O (configuration not stated)	i
CCN(CC)CCN1C(=O)Cn2c(C)c(C)c3cccc1c32	i
CCc1sc(C(=O)N2CCC3(CC2)OCCO3)cc1Br	0.0

Nothing new here: entries from further up.
SMILES	H5N1 antiviral
O=C(Cc1ccc(Cl)cc1)N1CCN(C(=O)c2ccco2)CC1	0.2
COC(=O)C1C(O)=C(C(C)=N)C(=O)CC1(C)C (configuration not stated)	i
CCCCN(C)Cc1c(C)[nH]c2c(Cl)cccc2c1=O	2.4
Cc1nc(C)c(NC(=O)N2CCc3ccccc32)cc1NC(=O)N1CCc2ccccc21	i
CNc1oc(Cc2cccc3ccccc23)nc1C#N	2.5
O=C(CSc1nnnn1-c1cccc2c1CCCC2)NC1CCCC1	i
CCC(C)n1c(SC(C)C#N)nc2ccccc2c1=O (configuration not stated)	2.4
O=C(O)CCC(C(=O)O)n1c(O)c(C2=c3ccccc3=NC2=O)sc1=S (configuration not stated)	0.2
CCCOc1ccccc1C(=O)NC(CO)C(=O)O (configuration not stated)	i
O=C(NC1CCCc2ccccc21)C1CCN(c2nnc(-n3cccc3)s2)CC1 (configuration not stated)	i
CCCn1c(-c2ccccc2)nc2c(=O)n(C)c(=O)[nH]c21	i
Cc1[nH]nc2c1C1(CCN(Cc3ccccc3)CC1)C(C#N)=C(N)O2	1.4
Cc1occc1-c1nnc(SCC(=O)Nc2nc3ccccc3s2)o1	0.7
COC(=O)C(C)Sc1nc2c([nH]c3ccccc32)c(=O)n1C (configuration not stated)	2.3
Cn1c(C(O)c2ccccc2)nc(Cl)c1Cl (configuration not stated)	i
O=C(COc1ccccc1)Nc1ccccc1N1CCN(c2ccc(F)cc2)CC1	i
Cc1ccccc1NC(=S)N(C)C1(c2ccccc2Cl)CCCCC1=O (configuration not stated)	i
CCN(CC)CCN1C(=O)Cn2c(C)c(C)c3cccc1c32	i

(listing goes on)
SMILES	H5N1 antiviral
CSc1cccc(NC(=O)CSc2nc3ccccc3o2)c1	i
CCn1c(SCC(=O)NCc2cccs2)nc2c1c(=O)n(C)c(=O)n2C	1.6
COc1ccc(C(=O)Nc2cccc3c2C(=O)NC3=O)cc1S(=O)(=O)N1CCOCC1	0.7
CCN(CC)CCOC(=O)c1ccc(NC(=O)C2(c3ccccc3)CCCC2)cc1	i
COc1ccc(CNc2nc3c(c(C(F)(F)F)n2)CCCCC3)cc1	i
CC(=O)c1ccc(NC(=O)c2ccc3nc(-c4ccco4)c(-c4ccco4)nc3c2)cc1	0.5
CCn1cc(C(=O)OCc2ccc(F)cc2)c(=O)c2ccc(C)nc21	0.5
COCCNC(=O)Cn1nc(-c2ccccc2OC)ccc1=O	0.9
O=C(C1COc2ccccc2O1)N1CCOCC1 (configuration not stated)	1.1
Cc1ccc(S(=O)(=O)CCC(=O)Nc2nccs2)cc1	0.4
Cc1cccc(OCC(=O)Nc2nc3ccc([N+](=O)[O-])cc3s2)c1C	i
Cc1nc2nc(CSc3ccc(Cl)cc3)cc(=O)n2[nH]1	0.2
O=C(Nc1cccnc1)c1cc(-c2ccco2)on1	i
C=CCN(C(=O)Nc1ccccc1)C1CC(=O)N(c2ccc(OC)cc2)C1=O (configuration not stated)	i
O=C(NC1CCN(C(=S)NCc2ccco2)CC1)C12CC3CC(CC(C3)C1)C2	i
O=C(NCCCN1CCCC1=O)NC1CCCCC1	0.1
NC(=O)C1CCN(S(=O)(=O)c2cccc(S(=O)(=O)N3CCCCC3)c2)CC1	i
COc1ccc(NC(=O)c2cc(CN3C(=O)c4ccccc4C3=O)ccc2OC)cn1	0.3
CCCn1nnnc1NC(=O)COc1ccc(Cl)cc1C	0.6
CCCc1nc(SCC(=O)Nc2cc(C)on2)c2c(=O)n(C)c(=O)n(C)c2n1	1.4
CC(=O)c1ccc2c3c(cccc13)C(=O)N(c1c(C)nn(C)c1C)C2=O	0.9
Fc1ccccc1Cn1nnc2c(NCCc3ccccn3)ncnc21	i
COc1cc2nc(NCC3CCCO3)n3nc(-c4cccnc4)nc3c2cc1OC (configuration not stated)	i
CC(C)COP(=O)(OCC(C)C)C(Nc1ccccc1)c1ccc2c(c1)OCO2 (configuration not stated)	1.1
O=C1/C(=C/c2cccnc2)Oc2cc(OS(=O)(=O)c3ccccc3)ccc21	2.0
Cc1ccc(-c2nnc(NC3CCCCC3)c3ccccc23)cc1S(=O)(=O)N1CCN(C)CC1	0.6
Cc1cc(C)nc(NC2=NCC(=O)N2CCc2c[nH]c3ccccc23)n1	1.4
Cc1cc([N+](=O)[O-])c(-c2ccc(/C=N/n3cnnc3)o2)cc1Cl	i
Cc1ccc(NC(=O)c2cc(=O)c3ccccc3o2)cc1	i
Cc1ccc(C(=O)NCc2ccc3c(c2)OCO3)cc1N1CCCC1=O	1.9
COc1cccc(-c2nc3ccc(O)cc3c(=O)o2)c1	i
